nsP2pro primary: inhibitors of chikungunya virus nsP2 protease; Q8JUX6; FRET peptide cleavage, nsP2pro, fluorescence 1 h; Potency, µM (highest dose often 24.9 µM), for the others: at the highest dose activity change, negative = inhibition, hits mostly inhibitors; hit rate 1.1% among 31,000; active means well fitted inhibition curve with a large enough effect; inconclusive means small, poorly fitted or top-dose-only effect; inactive means no such curve, though single readings can be large or run the other way; note: nearly all actives have a fitted effect of over 60% in size; a reference inhibitor and vehicle were the controls
Target sequence (Q8JUX6 whole entry, looked up): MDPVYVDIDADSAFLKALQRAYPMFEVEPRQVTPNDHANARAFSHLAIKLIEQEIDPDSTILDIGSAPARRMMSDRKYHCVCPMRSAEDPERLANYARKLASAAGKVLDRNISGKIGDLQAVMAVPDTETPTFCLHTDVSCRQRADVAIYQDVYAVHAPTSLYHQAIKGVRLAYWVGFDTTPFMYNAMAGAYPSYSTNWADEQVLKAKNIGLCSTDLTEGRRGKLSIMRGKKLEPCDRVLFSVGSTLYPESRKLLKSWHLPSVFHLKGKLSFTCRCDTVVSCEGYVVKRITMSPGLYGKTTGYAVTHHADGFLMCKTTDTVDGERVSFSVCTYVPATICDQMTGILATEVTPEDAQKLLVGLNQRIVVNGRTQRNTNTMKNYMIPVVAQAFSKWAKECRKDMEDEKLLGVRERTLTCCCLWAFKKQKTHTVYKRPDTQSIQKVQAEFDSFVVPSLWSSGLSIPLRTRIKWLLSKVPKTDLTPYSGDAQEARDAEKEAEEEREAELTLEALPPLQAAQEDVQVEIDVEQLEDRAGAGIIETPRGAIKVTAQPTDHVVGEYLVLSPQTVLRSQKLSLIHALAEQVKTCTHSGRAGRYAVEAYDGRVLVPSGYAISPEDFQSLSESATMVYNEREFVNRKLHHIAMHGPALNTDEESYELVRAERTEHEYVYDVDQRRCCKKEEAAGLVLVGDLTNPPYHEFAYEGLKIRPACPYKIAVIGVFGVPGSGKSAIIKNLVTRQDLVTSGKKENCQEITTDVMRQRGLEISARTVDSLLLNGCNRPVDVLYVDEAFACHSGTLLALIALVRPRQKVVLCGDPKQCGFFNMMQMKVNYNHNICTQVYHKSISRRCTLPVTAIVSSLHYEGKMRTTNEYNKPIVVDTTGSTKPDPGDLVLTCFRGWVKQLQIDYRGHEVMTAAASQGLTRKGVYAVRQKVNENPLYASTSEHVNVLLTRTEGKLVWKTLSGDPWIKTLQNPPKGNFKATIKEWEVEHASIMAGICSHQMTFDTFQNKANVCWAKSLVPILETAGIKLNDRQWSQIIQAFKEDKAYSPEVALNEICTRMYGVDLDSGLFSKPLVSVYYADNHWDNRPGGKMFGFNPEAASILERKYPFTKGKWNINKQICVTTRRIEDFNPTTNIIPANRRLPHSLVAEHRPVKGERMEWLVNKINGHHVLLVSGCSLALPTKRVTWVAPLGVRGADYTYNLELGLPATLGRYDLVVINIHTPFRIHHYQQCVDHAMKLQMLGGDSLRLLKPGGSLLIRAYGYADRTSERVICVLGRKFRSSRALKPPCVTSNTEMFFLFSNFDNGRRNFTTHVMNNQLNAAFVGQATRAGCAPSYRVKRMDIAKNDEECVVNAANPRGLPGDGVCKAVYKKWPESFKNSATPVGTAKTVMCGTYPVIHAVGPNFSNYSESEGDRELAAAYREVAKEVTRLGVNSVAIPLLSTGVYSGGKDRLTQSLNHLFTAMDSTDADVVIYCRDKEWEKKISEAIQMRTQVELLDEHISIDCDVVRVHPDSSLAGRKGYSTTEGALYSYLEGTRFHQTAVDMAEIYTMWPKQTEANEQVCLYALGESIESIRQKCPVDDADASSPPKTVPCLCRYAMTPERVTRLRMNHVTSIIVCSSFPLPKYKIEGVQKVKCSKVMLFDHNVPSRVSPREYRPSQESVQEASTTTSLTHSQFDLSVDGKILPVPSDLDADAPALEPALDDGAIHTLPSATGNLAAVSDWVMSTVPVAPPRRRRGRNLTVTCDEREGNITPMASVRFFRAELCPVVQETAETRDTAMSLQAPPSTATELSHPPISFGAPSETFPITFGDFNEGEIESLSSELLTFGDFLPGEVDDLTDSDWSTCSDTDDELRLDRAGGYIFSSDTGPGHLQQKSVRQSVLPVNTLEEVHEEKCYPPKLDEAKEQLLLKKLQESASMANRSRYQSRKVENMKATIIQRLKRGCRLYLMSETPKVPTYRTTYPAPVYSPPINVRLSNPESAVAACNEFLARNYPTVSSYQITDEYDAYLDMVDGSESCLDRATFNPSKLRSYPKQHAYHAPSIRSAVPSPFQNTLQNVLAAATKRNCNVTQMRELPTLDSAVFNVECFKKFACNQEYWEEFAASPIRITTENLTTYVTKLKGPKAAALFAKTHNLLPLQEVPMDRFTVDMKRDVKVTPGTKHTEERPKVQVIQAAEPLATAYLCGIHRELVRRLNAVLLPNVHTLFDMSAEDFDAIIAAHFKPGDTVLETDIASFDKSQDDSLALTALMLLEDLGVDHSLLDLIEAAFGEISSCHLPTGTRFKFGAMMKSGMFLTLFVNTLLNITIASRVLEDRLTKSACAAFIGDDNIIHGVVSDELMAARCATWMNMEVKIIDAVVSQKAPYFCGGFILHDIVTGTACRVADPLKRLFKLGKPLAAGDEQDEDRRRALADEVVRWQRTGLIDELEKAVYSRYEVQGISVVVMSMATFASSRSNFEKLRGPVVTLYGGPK
Numbers without * were called inactive; i = inactive; ? = inconclusive; [ ] = another dose, or the depositor's remark. % is set by controls: 0 for no effect and ±100 for the full control effect; potency is the fitted concentration of half-maximal effect. Not all compounds are listed, so the mix of outcomes need not match the whole.

SMILES | nsP2pro primary
O=CN1C(=O)CC/C1=C\c1ccc2c(c1)OCO2 | -4%
Cc1cc(C(=O)NCc2ccccc2)c2c(C)nn(-c3cccc(Cl)c3C)c2n1 | -26%
COc1ccc(C2Nc3ccc(Cl)cc3C(=O)N2Cc2ccccc2)cc1COc1ccc(NC(C)=O)cc1 (centres undefined) | ?
COc1cc(C)c(/C=C/C(C)=C/C=C/C(C)=C/C(=O)O)c(C)c1C | ?
O=C(O)c1ccc(-c2ccc(NC(=O)c3cccs3)cn2)cc1 | -10%
C=C1CCC2C(C)(C(=O)O)CCCC2(C)C1CCC1=CCOC1=O (centres undefined) | -4%
O=C(C1CCOCC1)N1CCC2(CC1)CC(N1CCCC1)CCO2 (centres undefined) | -14%
C/C(=C\CC/C(C)=C/CC[C@]1(C)CCc2cc(O)cc(C)c2O1)CC/C=C(\C)C(=O)O | 82%[activator][10 µM]
O=C(/C=C/c1ccc(O)c2c1[C@H](C(=O)O)[C@@H](c1ccc(O)c(O)c1)O2)O[C@H](Cc1ccc(O)c(O)c1)C(=O)O | 87%[activator]
COc1ccc(-n2ccnc(NCc3cccs3)c2=O)cc1 | -3%
C1CCC(c2noc(COCC3CC3)n2)NC1 (centres undefined) | -8%
NC(=O)c1c(NC(=O)c2cc(-c3ccc(F)cc3)on2)sc2c1CCCC2 | ?
COc1ccc(OC)c(-c2noc(N3CCN(c4cc(C)ccc4C)CC3)n2)c1 | -5%
Cc1nc(N(C)C(=O)Cc2ccc(-c3ccccn3)cc2)sc1S(N)(=O)=O | -4%
CCOc1ccc(CN2C(=O)c3ccccc3Sc3ccc(C(=O)NCCCN4CCOCC4)cc32)cc1 | -11%
C/C=C(\C)C(=O)O[C@H]1C=CC(=O)O[C@H]1/C=C/[C@H](O)[C@@H](C)O | -16%
Cn1c(CNC(=O)C2(C)CCCCC(=O)N2)nc2ccccc21 (centres undefined) | i
O=C(CSc1oc(-c2cccs2)nc1S(=O)(=O)c1ccccc1)Nc1ccc(F)cc1 | -27%
CN(c1cc(=O)c2ccnc(-c3cncnc3)c2o1)C1CCOCC1 | 4%[39.2 µM]
S=C(SSC(=S)N1CCCCC1)N1CCCCC1 | 2.5µM*
CC(=O)N1CC2(CCCCN2CC2CC2)Cc2ccccc21 (centres undefined) | -10%
CC(C)(C)NCC(O)CSc1nc(-c2ccc(C(N)=O)s2)cs1 (centres undefined) | -4%
COP(=O)(OC)C(O)C(Cl)(Cl)Cl (centres undefined) | 10%
Cc1ccc(NC(=O)c2cc(-c3cccs3)on2)cc1C | -18%
Cc1nc(C)n(CCNC(=O)[C@H]2CNC[C@@H](C(=O)N3CCOCC3)C2)n1 | -4%

Sorted by SMILES length (smallest number first): 7 of the compounds above
SMILES | nsP2pro primary
CC(=O)N1CC2(CCCCN2CC2CC2)Cc2ccccc21 (centres undefined) | -10%
O=C(O)c1ccc(-c2ccc(NC(=O)c3cccs3)cn2)cc1 | -10%
NC(=O)c1c(NC(=O)c2cc(-c3ccc(F)cc3)on2)sc2c1CCCC2 | ?
Cc1cc(C(=O)NCc2ccccc2)c2c(C)nn(-c3cccc(Cl)c3C)c2n1 | -26%
CCOc1ccc(CN2C(=O)c3ccccc3Sc3ccc(C(=O)NCCCN4CCOCC4)cc32)cc1 | -11%
COc1ccc(C2Nc3ccc(Cl)cc3C(=O)N2Cc2ccccc2)cc1COc1ccc(NC(C)=O)cc1 (centres undefined) | ?
O=C(/C=C/c1ccc(O)c2c1[C@H](C(=O)O)[C@@H](c1ccc(O)c(O)c1)O2)O[C@H](Cc1ccc(O)c(O)c1)C(=O)O | 87%[activator]

Next part:
SMILES | nsP2pro primary
COc1ccc(NC(=O)c2cnc(N3CCCC3)nc2)cc1OC | -17%
COC(=O)C1CCN(c2csc3ccc(C)cc3c2=O)CC1 | -3%
CNc1ccc2oc(C[C@H]3O[C@@]4(CC[C@H]3C)O[C@H]([C@H](C)C(=O)c3ccc[nH]3)[C@H](C)C[C@H]4C)nc2c1C(=O)O | 24%
C[C@H](CCC(=O)NCC(=O)O)[C@H]1CC[C@H]2[C@@H]3[C@@H](O)C[C@@H]4C[C@H](O)CC[C@]4(C)[C@H]3CC[C@]12C | -19%
O=C1NCCOCCCN(C(=O)CC2CCCC2)[C@H]2CCC[C@@H]12 | -15%
CN(C)S(=O)(=O)c1ccc(-c2nc(NCc3ccc(-c4ccnc(C(F)(F)F)c4)cc3)c3ccccc3n2)cc1 | -15%
CN(C)[C@@H]1CCN(c2cccc(Nc3nn4c(=O)c5ccccc5nc4s3)c2)C1 | ?
CC(C)C(=O)Nc1nnc(S(=O)(=O)N2CCCCCC2)s1 | -15%
COc1ccccc1NC(=O)C1=C(C)Nc2nc(SCc3ccccc3)nn2C1c1ccccn1 (centres undefined) | -19%
CCOC(=O)c1csc(-n2nc(-c3ccc(F)c(F)c3)c(Cc3ccc(S(N)(=O)=O)cc3)c2N)n1 | -9%
O=C(N[C@H](c1ccccn1)C1CC(O)C1)c1ccc2c(c1)ncn2CCO (some centres undefined) | -5%
O=C1CCCC2=C1C(c1cccnc1Br)N=C(Nc1nc3ccccc3o1)N2 (centres undefined) | i
Cc1ccnc(NC(=S)N2CCN(c3ccc(C(F)(F)F)cc3)CC2)c1 | -8%
CCCSc1ncc(Cl)c(C(=O)N2CCN(c3cccc(Cl)c3)CC2)n1 | 20%
CCS(=O)(=O)c1ncc(Cl)c(C(=O)N(Cc2ccccc2)Cc2ccco2)n1 | 11µM*
COc1cccc(C(=O)Nc2nnc(S(=O)(=O)N3CCCC3)s2)c1 | -10%
COc1ccc(CCNC(=O)c2ccc3nnc(C4CC4)n3c2)cc1 | -29%[39.2 µM]
Cc1ccc(C(=O)N2CCCC(n3c(C)cnc3C3CCOCC3)C2)s1 (centres undefined) | ?
Cc1nc2cc(N3CCCC(C(=O)O)C3)cnc2nc1C (centres undefined) | -7%
COc1ccc(C2c3ccc4ccccc4c3Oc3ncn(CCN4CCOCC4)c(=N)c32)cc1OC (centres undefined) | 5%
Cc1[nH]nc(CCC(=O)N2CC[C@@H](NC(=O)c3cnccn3)[C@H](O)C2)c1C | -11%
OC[C@H]1O[C@@H](Oc2cccc3ccccc23)[C@H](O)[C@@H](O)[C@H]1O | 4%
COC(=O)c1cc2occc2n1CC(=O)Nc1cccc(SC)c1 | -19%
CCC(CC)COC(=O)[C@H](C)N[P@](=O)(OC[C@H]1O[C@@](C#N)(c2ccc3c(N)ncnn23)[C@H](O)[C@@H]1O)Oc1ccccc1 | -6%[0.199 µM]
CCNC(=O)N[C@@H]1C=C[C@@H](c2c(C)nn(-c3ccc(C(C)(C)C)cc3)c2C)C1 | -6%[39.2 µM]

In the list so far, these have a furan ring, fused or not:
SMILES | nsP2pro primary
CCS(=O)(=O)c1ncc(Cl)c(C(=O)N(Cc2ccccc2)Cc2ccco2)n1 | 11µM*
COC(=O)c1cc2occc2n1CC(=O)Nc1cccc(SC)c1 | -19%

Further entries follow:
SMILES | nsP2pro primary
C/C=C(/C)C(=O)OC1C2OC2C2(CO2)C2C3OC(=O)C(C)C3CCC12C (centres undefined) | -23%
CN1CCCC1c1nc(C2CN(S(=O)(=O)Cc3cccc(F)c3)C2)no1 (centres undefined) | -11%
Cc1cnc(C2CC2)n1C1CCCN(Cc2ccccc2)C1 (centres undefined) | i
CN(C(=O)CSc1nc(-c2ccccc2)no1)c1ccc(F)cc1 | -9%
CC1(c2noc(-c3cccnc3)n2)CCN(C(=O)CCC(=O)N2CC(=O)Nc3ccccc32)CC1 | -18%
Cc1ccc(C)c(S(=O)(=O)n2nc(C)c(S(=O)(=O)N3CCC(C)CC3)c2C)c1 | -16%
Cc1ccc(CSCCC(=O)N2CCN(c3cc(C)ccc3C)CC2)cc1 | -15%
CC1=C2CC(=O)C(C)CC/C=C(\C)CC2OC1=O (centres undefined) | 2%
CC(NC(=O)c1cccc(NC(=O)c2nsc3ccccc23)c1)c1ccccc1 (centres undefined) | -13%
CCC(C)(C)NC(=O)c1cccc2c1CCN2C(=O)Nc1ccc(C)cc1 | 4%
O=C(COc1ccccc1)N1C[C@@H]2C[C@H](C1)c1c(-c3ccccc3F)ccc(=O)n1C2 | -3%[39.2 µM]
CC1CCC(C(=O)Nc2ccc([S+](=O)([O-])Nc3nccs3)cc2)CC1 (centres undefined) | -3%
O=C(NCCS(=O)(=O)N1CCN(c2ccccc2)CC1)C1CC(=O)N(c2ccc(F)cc2)C1 (centres undefined) | -21%
Cc1nn(C)c(C)c1NC(=O)CC[C@H]1NC(=O)c2ccccc2NC1=O | 0%
NS(=O)(=O)c1ccc(Cl)c(S(N)(=O)=O)c1 | 11%
CCN1C(=O)c2ccccc2S(=O)c2ccc(C(=O)N3CCN(c4cccc(C)c4)C(C)C3)cc21 (centres undefined) | -2%
CCOc1ccccc1CNC(=O)CCCn1ccc2cc(S(=O)(=O)N3CCCC3)ccc21 | -16%
CN=C(NC)NCc1ccccc1 | 3%
COC(=O)[C@@H]1Cc2nc[nH]c2CN1C1CCOCC1 | -6%[39.2 µM]
Cc1c(C(=O)NCc2cccc(Cl)c2)sc2nc3n(c(=O)c12)CCC3 | -15%
O=C1Nc2ccccc2/C1=C\c1ccc(O)c(Cl)c1 | i
Clc1ccc(-c2noc3ncnc(NC4CCCCC4)c23)cc1 | -2%
CCC(=O)N1CCc2cc(CNC(=O)C(CC)c3ccccc3)ccc21 (centres undefined) | -28%
CN1C[C@@H](NC(=O)CC(C)(C)CC(=O)O)C[C@H]1c1nc(-c2ccc3c(c2)OCO3)no1 | -5%[39.2 µM]
O=C(CC1C(=O)N(c2ccccc2)C(=O)N1CCc1cccs1)Nc1ccc(Cl)cc1 (centres undefined) | 10%

6 entries drawn at random from those above:
SMILES | nsP2pro primary
Cc1ccc(CSCCC(=O)N2CCN(c3cc(C)ccc3C)CC2)cc1 | -15%
NS(=O)(=O)c1ccc(Cl)c(S(N)(=O)=O)c1 | 11%
O=C(CC1C(=O)N(c2ccccc2)C(=O)N1CCc1cccs1)Nc1ccc(Cl)cc1 (centres undefined) | 10%
CC1=C2CC(=O)C(C)CC/C=C(\C)CC2OC1=O (centres undefined) | 2%
O=C(NCCS(=O)(=O)N1CCN(c2ccccc2)CC1)C1CC(=O)N(c2ccc(F)cc2)C1 (centres undefined) | -21%
Cc1cnc(C2CC2)n1C1CCCN(Cc2ccccc2)C1 (centres undefined) | i

Following part:
SMILES | nsP2pro primary
CC1CC2OCC3(O)CCC(O)C(C14CC(c1ccoc1)OC4=O)C23CO (centres undefined) | -21%
COc1ccc(-c2nc3c(c(=O)[nH]2)CCN(C(=O)c2ccccc2)C3)cc1 | 0%
O=C(CSc1ccccc1)NCc1ccc2c(c1)CCN2C(=O)c1ccc(Cl)cc1 | -23%
Cc1ccccc1Nc1nc(N)c(C(=O)c2ccccc2Cl)s1 | -13%
COc1ccc(C2=Nn3c(nnc3-c3ccccc3OC)SC2)cc1O[C@H]1CCOC1 | 4%
C=CC(C)(C)O[C@@H]1O[C@H](CO[C@@H]2OC[C@](O)(CO)[C@H]2O)[C@@H](O)[C@H](O)[C@H]1O | -17%
COc1ccc(OCc2cc(C3Nc4ccccc4C(=O)N3Cc3ccccc3)ccc2OC)cc1 (centres undefined) | -2%
COc1cccc(CN2CCCC(O)(CNC3CCCCCCC3)C2=O)c1 (centres undefined) | 3%
C=CCc1ccc(O[C@@H]2O[C@H](CO)[C@@H](O)[C@H](O)[C@H]2O)c(O[C@@H]2O[C@H](CO)[C@@H](O)[C@H](O)[C@H]2O)c1 | 7%[10 µM]
O=C(NCCc1ccc(Cl)cc1)C1CCN(S(=O)(=O)c2ccc3[nH]ccc3c2)CC1 | -17%
CC1CCC2(C(=O)OC3OC(COC4OC(CO)C(O)C(O)C4O)C(O)C(O)C3O)CCC3(C)C(=CCC4C5(C)CCC(O)C(C)(C(=O)O)C5CCC43C)C2C1(C)O (centres undefined) | 1%[5.1 µM]
CCC1CCCCN1CCCNC(=O)c1c(O)nc2c(C)cccn2c1=O (centres undefined) | -25%
Cc1cc(F)ccc1NC(=O)CCC1CCCN(Cc2cn[nH]c2-c2cccc(F)c2)C1 (centres undefined) | 3%
CCOc1ccc(CN(CCc2ccc3c(c2)OCO3)Cc2cc(OC)cc(OC)c2)cc1 | -5%
COc1ccc(OCC2CN(c3ccc(OC)cc3)C(=O)c3ccc(C)nc3O2)cc1 (centres undefined) | -14%
Cc1cccc(C(=O)N2CCCC(c3noc(-c4cc5c(=O)[nH]c(C)cn5n4)n3)C2)c1 (centres undefined) | -1%
CCS(=O)(=O)c1ncc(Cl)c(C(=O)NCc2ccc(OC)cc2)n1 | 24%
COc1ccc(Nc2ncc(C(=O)N3CCN(c4ccccc4OC)CC3)c3ccccc23)cc1 | -7%
O=C(c1ccccc1Cl)N1CCC(c2nc3ccccc3s2)CC1 | -23%
N#CC1=C2SCN(C3CCCCC3)CN2C(=O)CC1c1ccc(Br)cc1 (centres undefined) | 0%
C=CCSc1nnc(-c2cccc3ccccc23)o1 | 2%
COc1ccc(-c2ccc3nc(-c4ccc(F)c(F)c4)oc3c2)c(OC)c1OC | -1%
C[C@@H](NS(C)(=O)=O)c1onc(-c2cccnc2)c1C(=O)O | -9%[39.2 µM]
Cc1ccc(NS(=O)(=O)c2cc3c(cc2N2CCCC2)NC(=O)CC3)cc1C | -13%
CCOc1ccc(CC(=O)N2CCc3cc(OC)c(OC)cc3C2COc2ccc3c(C)cc(=O)oc3c2)cc1 (centres undefined) | -16%

Going on with the list:
SMILES | nsP2pro primary
COc1ccc(CCNC(=O)C23CCC=C2N(C2CCCC2)C(=O)CC3)cc1OC (centres undefined) | 2%
COc1cccc(NC(=O)C(Cc2ccccc2)NS(=O)(=O)c2ccc3c(c2)c(=O)n(C)c(=O)n3C)c1 (centres undefined) | -14%
CC1CCCC2OC2C(=O)c2c(O)cc(O)cc2CC(=O)O1 (centres undefined) | 34%
COc1cc(Nc2nc(-c3ccncc3)nc3ccccc23)ccc1N1CCN(C)CC1 | -3%
O=C(Nc1ccccc1)O[C@@H]1CO[C@H]2[C@@H]1OC[C@@H]2NC(=S)Nc1ccc(F)cc1 | ?
COc1cccc2c1Oc1ncccc1N(c1ccc(C(=O)NCc3ccccc3C)s1)C2 | -4%
O=C(c1ccno1)N1C[C@@H]2OCC(=O)N(CC3CCCCC3)[C@@H]2C1 | 8%[39.2 µM]

Screens from PubChem.
